VDR inhibitor: vitamin D3 receptor (human) inhibition. P11473. VDR-SRC2-3 peptide fluorescence polarization, 2 h. Potency, µM, for the others: max response, negative = inhibition, most hits filed as inhibitors. actives 0.93% (n = 400,000). AID 504847; active means well fitted inhibition curve with a large enough effect; inconclusive means small, poorly fitted or top-dose-only effect, or another doubt; inactive means no such curve, though single readings can be large or run the other way; further: series mostly up to about 120 µM
Target sequence (P11473 whole entry, looked up): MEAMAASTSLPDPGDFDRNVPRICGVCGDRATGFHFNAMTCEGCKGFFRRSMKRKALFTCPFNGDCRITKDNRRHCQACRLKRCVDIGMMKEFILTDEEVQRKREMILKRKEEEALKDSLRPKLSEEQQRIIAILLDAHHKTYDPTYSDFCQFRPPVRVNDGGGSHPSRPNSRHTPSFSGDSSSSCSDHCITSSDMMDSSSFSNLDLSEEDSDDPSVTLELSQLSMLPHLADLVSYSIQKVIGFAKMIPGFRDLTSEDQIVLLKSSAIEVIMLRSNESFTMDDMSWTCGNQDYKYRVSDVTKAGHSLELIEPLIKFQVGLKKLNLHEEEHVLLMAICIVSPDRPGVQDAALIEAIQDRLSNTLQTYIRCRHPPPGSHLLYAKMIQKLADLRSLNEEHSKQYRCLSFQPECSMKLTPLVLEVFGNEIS
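After 23 nl compound addition and a short centrifugation, plates sat for 2 hours at ambient temperature; polarization of fluorescence then indicated loss of VDR binding to peptide SRC2-3.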
An asterisk follows results filed as active; u = inconclusive. On the % scale 0 is the no-effect control and ±100 the full control effect; potency means the concentration at half of the fitted maximal effect.

SMILES	VDR inhibitor
COC(=O)c1ccc(-c2nc3ccc(C)cc3o2)cc1	-14.0%
COc1ccccc1C(=O)NCCC(=O)N(C)CC(=O)Nc1ccc(Cl)cc1	-21.3%
C=CCNC(=S)NNC(=O)CCC(O)CCCCC (centres undefined)	-2.7%
CC(C)(C)OC(=O)N1CCC(NC(=O)c2nc[nH]c2C(=O)NC2CCN(C(=O)OC(C)(C)C)CC2)CC1	-5.5%
Cc1ccc2nc(NS(=O)(=O)c3cn(C)nc3C)sc2c1	-26.7%
COc1ccc(/C=C/C(=O)OCC(=O)Nc2cc(S(=O)(=O)N(C)C)ccc2Cl)cc1	-10.7%
CCO/N=C/C(=O)Nc1ccc(F)cc1F	2.0%
C=CCCCCCCCC(=O)OC	-11.5%
Cn1ccnc1SCC(=O)Nc1ccc([N+](=O)[O-])cn1	4.9%
CCN(CC)S(=O)(=O)c1cc(C(=O)N2CCc3ccccc32)ccc1Cl	1.6%
COc1ccccc1NC(=S)N(Cc1ccccc1)Cc1cccs1	3.7%
COc1ccc(/C=C/C(=O)OCC(=O)Nc2cc(C(F)(F)F)ccc2Cl)cc1	1.6%
NC(=O)[C@@H]1CCCCNc2c(F)cc([N+](=O)[O-])cc2C(=O)N[C@@H](CC(=O)O)C(=O)N[C@@H](CCC(=O)O)C(=O)N1	-23.8%
Cc1ccc(NC(=O)CN(C)CC(=O)N(C)Cc2ccccc2)cc1	-1.0%
O=C(Nc1cccc(-c2csc(Nc3ccc(Cl)cc3)n2)c1)c1cccc(C(F)(F)F)c1	9.1%
Cc1ccc(CNC(=O)CN(C)S(=O)(=O)c2ccc(Br)s2)cc1	-20.2%
COc1cccc(C2Nc3cccc4cccc(c34)N2)c1	-4.5%
Fc1ccccc1OCCCCCCN1CCCC1	1.2%
C/C(CCc1ccc2c(c1)OCO2)=N\NC(=O)c1ccccc1Cl	u
COc1ccc(CNC(=O)c2ccc3c(c2)nc2n3CCCCC2)cc1	11.4%
CCn1c(CSc2nnc(C)n2-c2ccccc2)nc2cc(S(=O)(=O)N(C)C)ccc21	-6.2%
O=C(CCC(=O)c1cccs1)OCc1nnc(-c2ccccc2)o1	-13.5%
Cc1ccsc1C(=O)N1CCN(C(=O)c2ccco2)CC1	-8.5%
O=C(Nc1nc2nccc(-c3ccccc3)n2n1)C(Cl)(Cl)Cl	16.2%
Cc1cc(=O)oc2cc(OCC(=O)Nc3ccc(CN4CCOCC4)cc3)c(Cl)cc12	18.9%

Rewritten with each value named: part of the list above.
COc1cccc(C2Nc3cccc4cccc(c34)N2)c1
- VDR inhibitor = -4.5%
Fc1ccccc1OCCCCCCN1CCCC1
- VDR inhibitor = 1.2%
C/C(CCc1ccc2c(c1)OCO2)=N\NC(=O)c1ccccc1Cl
- VDR inhibitor = u
COc1ccc(CNC(=O)c2ccc3c(c2)nc2n3CCCCC2)cc1
- VDR inhibitor = 11.4%

The listing picks up, repeating the 2 entries before the break.
SMILES	VDR inhibitor
O=C(Nc1nc2nccc(-c3ccccc3)n2n1)C(Cl)(Cl)Cl	16.2%
Cc1cc(=O)oc2cc(OCC(=O)Nc3ccc(CN4CCOCC4)cc3)c(Cl)cc12	18.9%
COc1cc(-c2nnn(CC#N)n2)ccc1OCc1ccccc1	-7.5%
CCOc1cc(CNCCSc2nnnn2-c2ccccc2)ccc1OC	10.7%
Cc1ccc(C(=O)N/N=C2/NC(=O)CC(C(=O)Nc3ccccc3)S2)cc1 (centres undefined)	-13.0%
CC(C)c1ccc(N(CC(=O)Nc2ccc(S(=O)(=O)N3CCOCC3)cc2)S(C)(=O)=O)cc1	16.3%
COc1ccc(-c2oc3ncnc(NCCCN(C)C)c3c2-c2ccc(OC)cc2)cc1	2.3%
O=c1ccc(Cl)n[nH]1	0.3%
C=CCNC(=S)N1CCC(C(=O)c2ccc(F)cc2)CC1	2.0%
C=CCn1c(SCC(=O)NCC(c2ccccc2)N(C)C)nnc1C1CCCCC1 (centres undefined)	-11.2%
Cc1ccc(NC(=O)C2(NC(=O)c3cccc(N4C(=O)CSC4c4ccccc4)c3)CCCCC2)cc1 (centres undefined)	23.3%
CC(=O)Nc1ccc(NC(=O)C2CCCCC2C(=O)O)cc1 (centres undefined)	-10.0%
COc1ccccc1NS(=O)(=O)c1ccc(-c2cc(C)no2)s1	-12.4%
Cc1cc(C(=O)CCl)c(C)n1CCc1ccc(F)cc1	-7.6%
NC(=O)CC(NC(=O)c1ccccc1)c1ccc(N2CCN(c3ccc(F)cc3)CC2)c([N+](=O)[O-])c1 (centres undefined)	3.5%
O=C(Oc1ccccc1)c1ccc2nccnc2c1	-4.0%
O=C1NC(=O)/C(=C\c2ccc(O)cc2O)S1	-24.8%
CCn1c(COc2cccc(C)c2)nnc1SCC(=O)Nc1cccc(C(=O)O)c1	-3.1%
COc1ccc(Cl)cc1NC(=O)CCCC(=O)c1ccccc1	-9.4%
COc1cc(C(=O)NCc2nnc(SCC(=O)NC3CCCC3)o2)cc(OC)c1OC	2.3%
COc1ccc(/C=C/c2cc(=O)c3cc(Cl)ccc3o2)cc1	-5.3%
Cc1ccc2c(c1)C(=O)C(=O)N2Cc1ccc(C(F)(F)F)cc1	25.1µM*
O=C1/C(=C/N(C(=O)c2ccco2)c2ccc(Br)cc2)Sc2ccccc21	u
CCc1ccc(/C=C/C(=O)c2c(C)cc(C)[nH]c2=O)cc1	-18.6%
COC(=O)C1=CN(Cc2ccc(F)cc2)C=C(C(=O)OC)C1c1ccc(O)c(OC)c1	-3.6%
Cc1ccccc1-n1nc(C(=O)O)cc1-c1ccccc1	-6.8%
Cc1cc(OCC(C)C)ccc1/C(O)=C1/C(=O)C(=O)N(Cc2cccnc2)C1c1ccncc1 (centres undefined)	18.5%
COc1ccc(NC(=O)c2oc3ccccc3c2NC(=O)C(C)(C)C)cc1	14.3%
COc1ccc(C(=O)N/N=C/c2ccc(OC)c(COc3ccc(F)cc3F)c2)cc1	2.5%
COc1ccnc(N=CNOCc2ccc(Cl)cc2)c1C#N	-2.7%
CC(COC(=O)c1ccccc1)(COC(=O)c1ccccc1)/[N+]([O-])=C/c1ccccc1	-4.2%
CC(=O)Nc1ccc(NC(=O)COC(=O)c2ccc(Cl)nc2)cc1	6.5%
O=c1[nH]c(SCc2cccc([N+](=O)[O-])c2)nc2[nH]ncc12	3.6%
O=c1ncn(-c2ccccc2C(F)(F)F)c2ncccc12	-12.8%
O=C(O)c1ccc(-c2nnn(Cc3ccccc3F)n2)cc1	-12.2%
Cc1ccc(N(C(C)C(=O)Nc2ccc(S(=O)(=O)N3CCOCC3)cc2)S(C)(=O)=O)cc1C (centres undefined)	24.0%
NNC(=O)c1n[nH]c2c1CC(C1CCCCC1)CC2 (centres undefined)	-26.0%
COCc1cc(=O)[nH]c(/N=C(\N)Nc2ccc(C)cc2)n1	-12.7%
COc1ccccc1Oc1c(C)oc2c(CN(C)C)c(O)ccc2c1=O	-4.5%
CC(C)CC(C(=O)O)N1C(=O)C2C3c4ccccc4C(c4ccccc43)[C@@H]2C1=O (some centres undefined)	-0.6%
COCCn1c(SCC(=O)NC2CCCC2)nnc1-c1ccncc1	0.9%
CCOc1cc(/C=C2/SC(=Nc3ccccc3)N(Cc3cccnc3)C2=O)ccc1OCC#N	13.3%
COc1cccc(OC)c1CN1CCCC(C(=O)c2ccccc2SC)C1 (centres undefined)	-21.8%
CN(C)c1ccc(-n2cccc2)cc1	3.2%
CC(C(=O)Nc1ccc(C(=O)O)cc1)N1C(=O)c2ccccc2C1=O (centres undefined)	-1.1%
CCOC(=O)N1CCC(N2C(=O)c3ccc(C(=O)Nc4cccc(OC)c4)cc3C2=O)CC1	-25.6%
COc1cccc(C(=O)Nc2c3c(nn2-c2cccc(C)c2C)CS(=O)(=O)C3)c1OC	4.6%
CC(=O)Nc1ccc(NCC(O)COc2ccccc2)cc1 (centres undefined)	-5.8%
O=C(c1ccc(Cl)c([N+](=O)[O-])c1)N1CCN(c2ccccn2)CC1	-5.6%
Cc1onc(-c2c(F)cccc2Cl)c1C(=O)N[C@@H]1C(=O)N2C(C(=O)O)C(C)(C)S[C@H]12 (some centres undefined)	-8.1%
COc1ccc(OC)c(CN2CCCC(C(=O)N3CCCCC3)C2)c1 (centres undefined)	2.3%
COC(=O)CN1C(=O)C(O)(CC(=O)c2ccc(C)o2)c2ccccc21 (centres undefined)	4.0%

Next part:
Structure | VDR inhibitor
O=c1c(Cl)c(NC2CC2)cnn1-c1ccccc1 | u
O=C(/C=C/c1cn(-c2ccccc2)nc1-c1cccnc1)N1CCCC1 | -1.3%
COc1cc(C2Nc3ccccc3C(=O)N2NS(C)(=O)=O)c([N+](=O)[O-])cc1OC (centres undefined) | u
Cc1ccc(Sc2ncnc(N)c2[N+](=O)[O-])cc1 | -5.8%
Cc1ccc(NS(=O)(=O)c2ccc3c(c2)[C@H]2C=CC[C@H]2[C@@H](c2ccc(F)cc2)N3)cc1C | -15.6%
Cc1cccc(Cn2c(SCc3ccc(C(=O)N4CCC(C)CC4)cc3)nc3ccncc32)c1 | 1.3%
O=[N+]([O-])c1cccc(S(=O)(=O)NCCc2cn3ccccc3n2)c1 | 4.8%
Cc1ccccc1NC(=O)Cc1nc(COC(=O)c2nc(Cl)ccc2Cl)cs1 | -13.1%
O=C(NC1CCCC1)C(c1ccncc1)N(C(=O)c1ccco1)c1ccc(F)c(Cl)c1 (centres undefined) | 7.9%
Cc1cc(C)cc(NC(=S)NCc2ccc3c(c2)OCO3)c1 | -6.4%
Cc1ccc(C(=O)NC(=C(Cl)Cl)S(=O)(=O)c2ccccc2)cc1 | 1.3%
CN(CC(=O)Nc1ccc(OC(F)(F)F)cc1)C(=O)Cn1c(=O)cnc2ccccc21 | 10.8%
CCCCCc1nc2c(=O)[nH]c3ccccc3c2o1 | -7.0%
COC(=O)CC1C(=O)NCCN1C(=O)CSc1nc2cc(Cl)ccc2o1 (centres undefined) | 3.5%
CCN(CC)S(=O)(=O)c1ccc2nc(NC(=O)c3cccs3)sc2c1 | 15.1%
Cc1ccc(C)c(CNC(=O)C2CCCCN2S(=O)(=O)c2ccc(F)cc2)c1 (centres undefined) | 7.7%
CCc1ccc(Nc2nnc(SCc3cc(=O)n4ccsc4n3)s2)cc1 | -6.7%
CC1=[N+](CC(=O)c2ccccc2)CCn2cccc21 | 4.1%
O=C(NCc1cccs1)C1CCCN(c2ncccn2)C1 (centres undefined) | 8.6%
CC(NS(=O)(=O)c1ccc(CCC(=O)NCc2cccnc2)cc1)c1ccccc1 (centres undefined) | -13.7%

Continued, starting with the last 5 of the part before.
Structure | VDR inhibitor
Cc1ccc(C)c(CNC(=O)C2CCCCN2S(=O)(=O)c2ccc(F)cc2)c1 (centres undefined) | 7.7%
CCc1ccc(Nc2nnc(SCc3cc(=O)n4ccsc4n3)s2)cc1 | -6.7%
CC1=[N+](CC(=O)c2ccccc2)CCn2cccc21 | 4.1%
O=C(NCc1cccs1)C1CCCN(c2ncccn2)C1 (centres undefined) | 8.6%
CC(NS(=O)(=O)c1ccc(CCC(=O)NCc2cccnc2)cc1)c1ccccc1 (centres undefined) | -13.7%
Cc1ccc(Oc2cc(C#N)c(C#N)cc2-n2nnc3ccccc32)cc1C | 10.9%
Cc1cc(-c2ccc(C)c(S(=O)(=O)NCCCN3CCN(c4ccccc4)CC3)c2)on1 | -6.6%
Cc1ccc(/C=C/C(=O)CCC(=O)O)cc1 | -10.0%
C[C@H](NC(=O)c1ccc(Cl)cc1)C(=O)NNC(=O)c1cccs1 | 6.0%
O=C(c1ccc(Cl)c(S(=O)(=O)N2CCc3ccccc32)c1)N1CCN(c2ccccc2O)CC1 | -11.6%
O=C(O)c1ccc(-c2nc3ccccc3s2)o1 | -4.5%
O=C(COc1ccccc1)Nc1ccc(NC(=O)c2ccco2)cc1 | 1.2%
CCSC1=C(C#N)C(c2ccccc2Cl)C(C(=O)c2cccs2)C(O)(C(F)(F)F)N1 (centres undefined) | 13.2%
CCOC(=O)c1ccc(S(=O)(=O)N2CCC(C(=O)N3CCN(c4ccccc4OC)CC3)CC2)cc1 | -11.3%
C#CCN1C(=O)C2C(C(=O)NC)C3C=CC2(O3)C1C(=O)NCc1ccc(OC)cc1 (centres undefined) | 21.0%
CNC(=O)/C(C#N)=C/c1c(N(Cc2ccccc2)Cc2ccccc2)nc2ccccn2c1=O | -18.9%
Cc1ccc(Cl)cc1N1CCN(C(=O)C(=O)N2CCCCC2)CC1 | 3.9%
COc1ccc(CNC(=O)C(OC(=O)c2ccco2)c2ccccc2)cc1 (centres undefined) | -10.3%
COc1ccc(NC(=O)CSc2nc(-c3cccs3)cc(C(F)(F)F)n2)cc1OC | 4.6%
COc1ccc(C2/C=C\CN(C(=O)C3CCCCC3)C(C)C(=O)N2Cc2ccc(F)cc2)cc1 (centres undefined) | -29.9%
N=C1SC(CC(=O)Nc2ccccc2[N+](=O)[O-])C(=O)N1c1ccccc1 (centres undefined) | -8.3%
Oc1ccccc1-c1nc(N2CCCC2)c2ccccc2n1 | 5.7%
CCCS(=O)(=O)N1CCC(C(=O)NCCN2CCCC2)CC1 | -18.3%
CCOc1ccc2c(c1)c(=O)c(C(=O)c1ccc3c(c1)OCO3)cn2Cc1ccc(F)cc1 | 6.3%
CCCN(CC(=O)Nc1ccccc1C)C(=O)Cc1coc2cc(C)ccc12 | 3.3%
Cc1cc(C(=O)CSc2nnc(-c3cccnc3)n2-c2ccccc2F)c(C)n1C | -13.2%

Assay outcomes deposited in PubChem BioAssay by National Center for Advancing Translational Sciences (NCATS).

Some of the compounds tested. The share of hits here may be higher or lower than overall.
